RE007 growth inh = less growth of the S. pombe RE007 Vpr strain; hit rate 0.21% among 360,000; AID 651644; Potency, µM (highest dose often 92.2 µM), inactives show at the top dose activity change, negative = less growth; S. pombe RE007 Vpr strain, BacTiter-Glo ATP luminescence, 24 h; control for the full effect not named in the record; active = well fitted falling curve with a large enough effect; inconclusive = small, poorly fitted or top-dose-only effect; inactive = no such curve, though single readings can be large or run the other way;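 also: % is scaled to controls: 0 for no effect and ±100 for the full control effect; nearly all actives have a fitted effect of over 50% in size; the assay follows cell death caused by Vpr and the record does not say whether a fall means rescue or toxicity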
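Fission yeast strain RE007, carrying one chromosomally integrated HIV-1 vpr copy, was seeded at OD 0.01 in PMG+AL medium with 23 nL pinned compound. After 24 h at 30 °C and 99% humidity, viability was read by BacTiter-Glo luminescence.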
Cruzain Triton = blocks cruzain activity in presence of Triton detergent; purified cruzain, Z-FR-AMC fluorescence, 0.01% Triton; hit rate 0.43% among 200,000; P25779; Potency, µM, for inactives: max response, negative = inhibition, hits mostly inhibitors; active = well fitted curve in the direction sought with a large enough effect; inconclusive = small, poorly fitted or top-dose-only effect, or another doubt; inactive = no such curve, though single readings can be large; an effect the other way counts as inactive or inconclusive;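 also: plate controls were neutral wells for no effect and buffer without enzyme for full effect; nearly all actives have a fitted effect of over 40% in size; top concentration of the series not given in the record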
Target sequence (P25779 123-467 limits assumed): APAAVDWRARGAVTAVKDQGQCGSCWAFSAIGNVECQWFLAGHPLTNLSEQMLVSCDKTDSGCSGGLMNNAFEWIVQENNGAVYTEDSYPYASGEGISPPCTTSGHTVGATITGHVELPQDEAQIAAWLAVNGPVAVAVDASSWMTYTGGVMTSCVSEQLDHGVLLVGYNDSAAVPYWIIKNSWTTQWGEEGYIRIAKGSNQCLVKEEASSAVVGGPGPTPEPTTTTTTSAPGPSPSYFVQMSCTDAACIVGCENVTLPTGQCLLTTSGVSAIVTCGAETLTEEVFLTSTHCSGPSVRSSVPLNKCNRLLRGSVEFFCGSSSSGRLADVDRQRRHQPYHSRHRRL
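Purified cruzain (1.5 nM final) was preincubated with compounds for 15 min at room temperature in 100 mM sodium acetate pH 5.5, 5 mM DTT, 0.01% Triton X-100. Reaction started with 2 uM Z-FR-AMC; AMC fluorescence change over 60 s gave activity.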
Cruzain inh noDet = blocks cruzain activity in detergent-free assay | hit rate 2.3% among 200,000 | AID 1476 | Potency, µM, inactives show max response, negative = inhibition, most hits filed as inhibitors | purified cruzain, Z-FR-AMC fluorescence, no detergent | P25779; active = well fitted curve in the direction sought with a large enough effect; inconclusive = small, poorly fitted or top-dose-only effect, or another doubt; inactive = no such curve, though single readings can be large; an effect the other way counts as inactive or inconclusive;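 also: plate controls were enzyme without inhibitor for no effect and buffer without enzyme for full effect; nearly all actives have a fitted effect of over 40% in size; top concentration of the series not given in the record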
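Purified cruzain at 1.5 nM, pre-incubated 15 min with compound at room temperature in 100 mM sodium acetate pH 5.5, 5 mM DTT, 0.00005% Triton X-100. Reaction started with 2 uM Z-FR-AMC; AMC fluorescence increase over 60 s gives rate.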
NS1 inh = blocks influenza NS1 protein function; hit rate 0.4% among 270,000; AID 2326; S. cerevisiae slowed by influenza A NS1, growth recovery by OD600; Potency, µM (series often up to 46.1 µM), without a hit: at the highest dose activity, positive = more growth; also: actives are rising curves; nearly all actives have a fitted effect of over 50% in size
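S. cerevisiae expressing influenza A NS1, grown in glucose, washed, then diluted 1:100 into pH 6.0 -URA galactose medium with 23 nl compound. Growth recovery read as OD600; NS1-free strain serves as control.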
2A StopGo = lowers the luciferase signal of an FMDV 2A StopGo reporter; human cells with a luciferase reporter of 2A StopGo recoding; control for the full effect not named in the record; AID 1159524; hit rate 1.2% among 410,000; Potency, µM (highest dose often 57.9 µM), for inactives: at the highest dose signal change, negative = less light; active = well fitted falling curve with a large enough effect; inconclusive = small, poorly fitted or top-dose-only effect; inactive = no such curve, though single readings can be large or run the other way; tested in HEK293T cells; also: % is scaled to controls: 0 for no effect and ±100 for the full control effect; nearly all actives have a fitted effect of over 45% in size; luciferase light after 4 h
SARS PLpro yeast = inhibitors of SARS-CoV papain-like protease in yeast; S. cerevisiae expressing SARS-CoV PLpro, growth rescue; control for the full effect not named in the record; Potency, µM (highest dose often 32.9 µM), without a hit: at the top dose activity, positive = growth rescue; hit rate 0.19% among 330,000; also: 0% is about no effect; nearly all actives have a fitted effect of over 55% in size; growth read by luminescence after 48 h
Marburg entry inh = blocks Marburg virus binding to or entry into cells | Marburg virus pseudotyped entry inhibition, cell reporter; control for the full effect not named in the record; about a third of the inactives were read at about 46 µM | hit rate 1.8% among 300,000 | AID 540276 | Potency, µM (top dose mostly 37.8 µM), without a hit: at the top dose activity change, negative = inhibition, actives largely listed as inhibitors; active = well fitted inhibition curve with a large enough effect; inconclusive = small, poorly fitted or top-dose-only effect, or effect the other way; inactive = flat fitted curve, though single readings scatter; tested in HEK293 cells; about a fifth of its hits are not listed in these tables; also: % is scaled to controls: 0 for no effect and ±100 for the full control effect; luciferase read-out
LASV entry inh = Lassa virus entry inhibition; Lassa virus pseudotype entry inhibition, cell reporter; control for the full effect not named in the record; Potency, µM (titrated, usually from 37.9 µM), for inactives: top-dose activity change, negative = inhibition, hits mostly inhibitors; hit rate 1.2% among 300,000; AID 540256; active means well fitted inhibition curve with a large enough effect; inconclusive means small, poorly fitted or top-dose-only effect, or effect the other way; inactive means flat fitted curve, though single readings scatter; tested in HEK293 cells; also: % is scaled to controls: 0 for no effect and ±100 for the full control effect; nearly all actives have a fitted effect of over 50% in size; luciferase read-out
Starred values were filed as active, the others as inactive; ? = inconclusive; . = no result given; & = joins results of further samples; [ ] = remark or other dose. Unless noted, calls follow the shape of the dose curve; as a rule, active means well fitted rising curve with a large enough effect; inconclusive means small, poorly fitted or top-dose-only effect; inactive means no such curve, though single readings can be large or run the other way. Potency is read from the fitted curve at half-maximal effect.

SMILES	RE007 growth inh	Cruzain Triton	Cruzain inh noDet	NS1 inh	2A StopGo	SARS PLpro yeast	Marburg entry inh	LASV entry inh
CCn1nccc1C(=O)Nc1ccc(C(=O)OC(C)C)cc1	10.7%	.	.	-21.2%	7.9%	-4.6%	.	.
COCCNC(=O)[C@H](C)[C@H]1C[C@]1(C)[C@H](NC(=O)OCc1ccccc1)c1ccccc1	-3.7%	0.3%&2.6%	?	-31.6%	2.5%	5.7%	-23.3%	-12.2%
CC(C)(C)c1cc(NCCCn2ccnc2)n2ncc(-c3ccccc3)c2n1	9.1%	.	.	0.2%	12.9%	-3.0%	?	?
O=C1N/C(=C/c2cccs2)C(=O)N1Cc1ccc(F)cc1	16.3%	.	.	4.5%	-5.4%	0.1%	?	-27.5%
O=c1c2ccccc2nc(SCc2cc([N+](=O)[O-])cc3c2OCOC3)n1-c1ccccc1	5.2%	-2.5%	12.6µM*	2.9%	-15.5%	5.9%	?	-0.2%
COc1ccc(CCNC(=O)C2CCC(CNS(=O)(=O)c3ccc(F)cc3)CC2)cc1OC (configuration not stated)	0.1%	.	.	.	-17.9%	-3.7%	3.0%[46.1 µM]	0.0%
O=P(c1ccccc1)(c1nc2ccccc2s1)N1CCOCC1 (configuration not stated)	6.9%	4.9%	8.0%	-0.1%	17.8%	0.8%	15.0%	-7.8%
CCO[C@@H]1OC(C(=O)NC2CC2)=C[C@H](C(C)(C)C)[C@H]1CCCO	-10.3%	.	.	3.7%	-12.5%	-0.1%	.	.
CCn1c(=O)c(C(=O)NCc2ccc(Cl)cc2)c(O)c2ccccc21	3.3%	.	.	-2.2%	2.6%	-4.6%	.	.
Cc1ccccc1OCC(=O)NNC(=O)Cn1[nH]c(=O)c2ccccc2c1=O	1.1%	.	.	.	-5.5%	-9.7%	?	-0.2%[46.1 µM]
Cc1nc(-c2ccccc2)sc1CCNC(=O)c1ccco1	.	-9.3%	-0.8%	.	18.1%	.	.	4.1%[46.1 µM]
Cc1cc(C(F)(F)F)n(-c2nc(C(=O)O)cs2)n1	7.7%	.	.	.	-3.4%	-1.8%	-14.8%[46.1 µM]	0.4%
Cc1ccc(CNC(=O)C(=O)NCC(c2ccco2)S(=O)(=O)c2ccccc2)cc1 (configuration not stated)	.	1.8%	-2.9%	.	-15.9%	.	.	?
COc1ccc(N(CC(=O)NCCSCc2ccco2)S(=O)(=O)c2ccccc2)cc1OC	3.1%	.	.	16.1%	-3.1%	-2.2%	-3.8%	-23.8%
Cc1c(NC(=O)CSc2ccccn2)c(=O)n(-c2ccccc2)n1C	-0.6%	2.9%	-18.5%	4.3%	28.6%	?	2.8%	?
Cc1ccc(CCNc2nc3c(S(=O)(=O)c4ccc(C)cc4)nnn3c3ccsc23)cc1	.	-2.0%	-3.4%	.	4.2%	.	.	13.7%[46.1 µM]
Cc1nnc(NC(=O)CSc2nccn2-c2cccc(C)c2C)s1	3.0%	-2.2%	9.3%	-8.3%	?	5.5%	.	.
CCOC(=O)c1cnc2c(cnn2C)c1NCc1ccc(OC)cc1	-5.5%	.	.	-0.3%	6.7%	-2.1%	-10.1%[46.1 µM]	2.7%[46.1 µM]
Cc1cccc2sc(NC(=O)CN3C(=O)c4ccccc4C3=O)nc12	-1.0%	2.8%	?	9.9%	-8.5%	29.3%	-1.7%	-5.6%
O=C(COC(=O)Cn1cc(C(F)(F)F)ccc1=O)NCc1ccccc1	-17.7%	.	.	.	-11.7%	3.0%	-1.7%[46.1 µM]	2.4%
CCC(=O)Nc1nc2ccccc2n1Cc1ccc(Cl)cc1	?	.	.	-50.4%	?	-2.0%	11.6µM*	?
CCOC(=O)c1cc(-c2ccc(Cl)cc2)nc2onc(C)c12	.	-8.2%	19.3%	-4.5%	.	1.8%	3.0%	.
CCOc1ccccc1N1CCN(C(=S)NCc2ccccc2)CC1	-0.1%	.	.	.	10.8%	0.6%	?	?
CNS(=O)(=O)c1ccc2ccccc2c1	4.7%	.	.	3.8%	17.0%	-0.2%	1.9%[46.1 µM]	2.3%
COC(=O)c1sccc1-n1cccc1C(=O)C(=O)N1CCOCC1	-5.2%	.	.	-2.8%	-5.0%	-0.4%	9.0%[46.1 µM]	-5.8%[46.1 µM]
O=C(Nc1ccccc1-c1nc2ccccc2s1)c1cccnc1	0.6%	0.5%	9.2%	?	-15.0%	13.4%	29.0%	-0.2%
Cc1ccc2oc(C(=O)N(Cc3cccc(F)c3)C3CCS(=O)(=O)C3)c(C)c2c1 (configuration not stated)	.	-7.3%	20.0%	.	-19.6%	.	-29.8%[46.1 µM]	-21.1%[46.1 µM]
CN(Cc1ccccc1)C(=O)COC(=O)/C=C/c1ccc2c(c1)OCO2	-1.7%	.	.	.	26.0%	-2.4%	25.9%	?
O=C/C(=C\Nc1ccccn1)c1nc2cc(Cl)ccc2o1	-15.4%	-12.8%	-13.3%	?	46.5%[activator]	-66.0%	?	?
Cc1cc(C)n(-c2ccc(C(=O)OC(C)C)cc2)n1	14.6%	3.6%	4.0%	-32.1%	.	2.0%	4.9%	?
COc1cccc(C2CC(=O)N3CN(C4CCCCC4)CSC3=C2C#N)c1 (configuration not stated)	.	28.2µM*	9.7%	.	-13.9%	.	-3.3%[46.1 µM]	14.4%[46.1 µM]
Cc1ccc(-c2nc3c(cnn3-c3ccccc3)c(=O)o2)cc1	4.4%	-1.9%	7.0%	6.5%	.	4.4%	-0.3%	?
Cc1ccc(N(C(=O)c2ccncc2)C2C=CS(=O)(=O)C2)cc1 (configuration not stated)	-1.1%	2.2%	-7.6%	-3.8%	-13.5%	-10.4%	?	-0.7%
CCOc1ccc(S(=O)(=O)Nc2ccc(C(=O)N/N=C(\C)c3ccc(-n4ccnc4)cc3)cc2)cc1	-10.8%	-2.3%	?	23.2%	-4.8%	2.6%	11.2µM*	?
O=C(CCc1nnc(-c2ccsc2)o1)N1CCCCC1CCn1ccnc1 (configuration not stated)	-2.6%	.	.	-2.5%	12.1%	-0.5%	18.7%[46.1 µM]	22.5%[46.1 µM]
CCc1ccc(-n2c(=O)c3sc4ccccc4c3n(CC(=O)N(CC)Cc3ccccc3)c2=O)cc1	.	-0.6%	-3.2%	.	0.0%	.	?	2.4%[46.1 µM]
Cc1noc(C)c1CSCC(=O)N(CC(C)C)c1c(N)n(Cc2ccccc2)c(=O)[nH]c1=O	-16.2%	.	.	.	-12.4%	.	-5.8%	?
O=C(Nc1ccncc1)C1CCN(S(=O)(=O)c2cccs2)CC1	-14.2%	.	.	0.0%	5.7%	-3.1%	-9.9%[46.1 µM]	-12.2%
Cc1cccc(C)c1N1C(=O)C(Cl)=C(N2CCCC2)C1=O	-3.9%	.	.	1.4%	-13.1%	3.7%	.	.
O=C(O)CC1Sc2nc3ccccc3n2C1=O (configuration not stated)	11.6%	-0.3%	3.6%	-1.3%	-23.3%	3.1%	4.3%	-4.5%
O=C(NC1CCCCC1)c1ccc([N+](=O)[O-])cc1	-12.8%	.	.	.	26.8%	.	9.5%[46.1 µM]	?
CSc1ccccc1OCc1cc(C(=O)N2CCN(C)C(c3ccccc3)C2)no1 (configuration not stated)	-15.8%	.	.	.	12.7%	.	?	?
CCOC(=O)N1CCC(Nc2c(NCCCN(C)Cc3ccccc3)c(=O)c2=O)CC1	-18.3%	1.2%	-8.4%	7.3%	3.7%	-0.7%	1.4%	.
CCC(C)N(C(=O)CSc1nc(-c2ccccc2)cs1)C1CCS(=O)(=O)C1 (configuration not stated)	-7.7%	1.1%	?	12.3%	-5.9%	12.5%	-9.5%	9.4%
CCCn1nnc(NC(=O)c2ccc3c(c2)OCO3)n1	14.1%	.	.	7.0%	36.1%[activator]	0.6%	?	-25.4%
COc1ccc(CCCC(=O)N/N=C/c2ccc(C)cc2)cc1	2.0%	.	.	.	47.3%[activator]	-4.1%	1.0%	?
CCCCCc1c(C)nc(Nc2ccccc2)[nH]c1=O	-8.8%	-6.6%	-14.6%	-86.3%	-6.9%	-19.8%	?	-21.2%
O=C1C2C3C=CC(C3)C2C(=O)N1CCN1CCN(S(=O)(=O)/C=C/c2ccccc2)CC1 (configuration not stated)	25.7%	.	.	0.5%	?	-0.3%	25.4%[46.1 µM]	-10.2%
COc1ccc(C)cc1S(=O)(=O)N1CCN(C(=O)c2ncoc2-c2ccc(C)cc2)CC1	0.6%	.	.	11.0%	-19.9%	0.2%	2.4%[46.1 µM]	?
CSc1nccc(Oc2cccc(C#N)c2)n1	0.5%	-1.8%	-7.8%	18.7%	-24.2%	-7.2%	0.1%	8.8%
CCOc1ccccc1CNC(=O)C1CCN(Cc2cc3ccccc3n2Cc2ccccc2)CC1	.	-2.5%	-4.9%	.	-28.4%	.	.	-24.0%[46.1 µM]
Cc1ccc2nc(SCC(=O)c3ccc4c(c3)OCO4)[nH]c2c1	8.0%	-3.0%	?	-12.9%	.	3.3%	1.7%	-27.5%
Fc1ccccc1N1CCN(C2CCCN(Cc3ccccc3C(F)(F)F)C2)CC1 (configuration not stated)	0.1%	.	.	-2.2%	-24.5%	1.7%	.	.
COc1ccc(C(=O)c2c[nH]c(C(=O)NCc3ccco3)c2)cc1	-1.1%	5.1%	6.6%	3.4%	18.3%	-11.7%	?	-0.2%
COc1ccc2[nH]cc(CCNC(=O)c3ccccc3Cl)c2c1	2.4%	.	.	-1.4%	8.9%	-2.3%	1.8%[46.1 µM]	-10.4%
COc1ccc(-c2[nH]ncc2-c2cscn2)c(O)c1	-0.7%	.	.	.	-15.0%	2.0%	-1.0%	-13.3%[46.1 µM]
CCn1c(=O)cc(OCC(=O)NCCCN2CCC(C)CC2)c2ccccc21	13.5%	3.9%	-6.8%	5.1%	23.0%	10.4%	18.3%	7.8%
COc1ccc(NC(=O)CCc2nnc3ccc(N4CCN(c5cccc(OC)c5)CC4)nn23)cc1	-9.1%	.	.	?	-20.4%	1.6%	.	.

Compound activity as filed in PubChem.
